ALR H2O2 inh = inhibitors of human ALR sulfhydryl oxidase, primary screen, biochemical, H2O2 detection, HRP-luminol luminescence, single point | 3.8% of 290,000 active | purified ALR, DTT oxidation | inhibition, % (no concentration beside the values) | FAD-linked sulfhydryl oxidase ALR (Homo sapiens), P55789;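 active = mean and each replicate at 75% or more; inconclusive = only one of the two met; inactive = neither met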;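 also: stock transfer was 7.5 nL into about 7.5 µL; 0% = neutral wells and 100% = wells with inactivated enzyme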
Target sequence (P55789 whole entry, looked up): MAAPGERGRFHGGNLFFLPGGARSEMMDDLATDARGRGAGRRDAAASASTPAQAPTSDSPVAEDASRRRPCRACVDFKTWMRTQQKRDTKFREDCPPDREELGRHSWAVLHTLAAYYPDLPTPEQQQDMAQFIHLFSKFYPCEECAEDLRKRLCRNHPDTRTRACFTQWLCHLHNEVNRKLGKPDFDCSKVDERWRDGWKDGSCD
T cruzi repl = inhibitors of intracellular T. cruzi growth, primary screen, luminescence, NIH3T3 host cells | AID 1885, 2009 | 1.4% of 300,000 active | T. cruzi beta-gal in NIH3T3, 90 h | inhibition, % (no concentration beside the values);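 active = mean inhibition across valid replicates above about 55%, limit read from the data; inconclusive = mean below that limit but half or more replicates reach it; inactive = mean below it, under half of replicates reach it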;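 also: signal also drops with host cell toxicity which is not excluded here; 0% = plate median of DMSO wells and 100% = zero luminescence signal; higher percent means less beta-gal luminescence so fewer parasites; stock transfer was 50 nL into about 50 µL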
Beta cell apopt = inhibitors of cytokine-induced beta cell apoptosis, primary screen, luminescence; INS-1E cytokine-induced death, ATP luminescence, 48 h; percent of positive-control rescue, neutral wells zero; protection from apoptosis, % (concentration not given with the values); 0.8% of 300,000 active; AID 435005, 2010;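 active = all replicates at 75% or more, or half of them and the mean; inconclusive = half reach 75% but not the mean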;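 also: 0% = cytokine-treated negative control wells and 100% = positive control rescue; higher means more ATP so stronger rescue from cytokine killing; wells of about 40 µL received 100 nL stock; the first replicate is given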
Calb FLC = C. albicans growth inhibition with fluconazole, primary screen, CaCi-2 strain, Alamar Blue fluorescence; AID 1979, 2009; C. albicans CaCi-2 (fluconazole-resistant clinical isolate) + fluconazole, 48 h; growth inhibition, % (no concentration beside the values); 0.57% of 300,000 active;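 active = most replicates above 75%; inconclusive = exactly half above 75%; inactive = most below 75%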;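 also: all wells also contain fluconazole at 8 µg/ml as a sub-toxic cotreatment; 0% = median of DMSO wells and 100% = median of geldanamycin control wells; wells of about 8 µL received 7.5 nL stock; the first replicate is given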
AF4-AF9 inh = inhibitors of AF4 peptide binding to AF9, primary screen, biochemical, AlphaScreen, biotin-AF4 peptide, FLAG-AF9, single point; Protein AF-9 (Homo sapiens), P42568; inhibition, % at 10 µM; AID 651704, 2012; 0.47% of 350,000 active;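 active = every replicate reaching a set inhibition limit, whatever the replicate mean, cut at about 25% in these data; inconclusive = mean inhibition reaches that limit but some replicates miss it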;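 also: 0% = plate neutral control median and 100% = total signal loss; the record names both 10 and 1 µM as test concentration; the first replicate is given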
Target sequence (P42568 whole entry, looked up): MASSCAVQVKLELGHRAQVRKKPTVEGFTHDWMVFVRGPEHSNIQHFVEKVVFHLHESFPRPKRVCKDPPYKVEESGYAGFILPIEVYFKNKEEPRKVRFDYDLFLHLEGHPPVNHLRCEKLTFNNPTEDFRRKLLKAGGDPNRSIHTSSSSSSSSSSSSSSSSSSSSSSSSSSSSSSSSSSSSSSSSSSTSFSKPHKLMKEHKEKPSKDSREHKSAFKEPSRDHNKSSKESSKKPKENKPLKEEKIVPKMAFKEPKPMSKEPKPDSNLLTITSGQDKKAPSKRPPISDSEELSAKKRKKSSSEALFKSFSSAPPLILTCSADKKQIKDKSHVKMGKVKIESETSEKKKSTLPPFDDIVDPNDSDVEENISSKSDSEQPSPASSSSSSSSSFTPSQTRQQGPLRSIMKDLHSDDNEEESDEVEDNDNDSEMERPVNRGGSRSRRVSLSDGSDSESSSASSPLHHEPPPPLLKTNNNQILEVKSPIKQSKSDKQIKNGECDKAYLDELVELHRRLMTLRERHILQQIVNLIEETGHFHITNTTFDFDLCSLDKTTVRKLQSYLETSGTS
RanGTP-Imp inh = inhibitors of RanGTP-importin-beta interaction, primary screen, biochemical, FRET, CFP-Ran, YFP-importin-beta, homogeneous | Ran GTPase (GTP-bound) - importin-beta complex | cell-free CFP-Ran/YFP-importin-beta FRET ratio | inhibition, % (test concentration not listed) | 1.1% of 300,000 active | AID 2216, 2009;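 active = most replicates above 15%; inconclusive = exactly half above 15%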;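 also: 0% = DMSO wells and 100% = Ran loaded with GDP instead of GTP; wells of about 40 µL received 100 nL stock; the first replicate is given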
FGF22 binding = binders of human FGF22 protein, primary screen, FGF22 synaptogenesis inhibitor project, biophysical, thermal shift, single point. Fibroblast growth factor 22 (Homo sapiens), Q9HCT0. recombinant FGF22 thermal shift, SYPRO orange fluorescence; percent of sucrose octasulfate shift, DMSO zero. calls only at 9.99 µM. 1.5% of 340,000 active. AID 651658, 2012;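 active = melting point raised past a set limit in the mean and every replicate; inconclusive = no clear call; three in four hits are not shown here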
Target sequence (Q9HCT0 whole entry, looked up): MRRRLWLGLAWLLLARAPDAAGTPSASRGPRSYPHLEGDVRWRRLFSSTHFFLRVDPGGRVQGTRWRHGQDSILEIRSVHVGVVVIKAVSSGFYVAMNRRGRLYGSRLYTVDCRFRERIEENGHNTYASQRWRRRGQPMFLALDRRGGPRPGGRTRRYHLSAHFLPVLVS
Ecoli rRNA inh = reduced GFP signal of wild-type E. coli, primary screen, bacterial rRNA inhibitor project, GFP/RFP fluorescence, OD600, single point. AID 720706, 2013. 1.6% of 350,000 active. E. coli WT GFP vs humanized-ribosome RFP mutants, 24 h; hits give low values; DMSO median 0, no signal -100. GFP signal change (wild-type ribosome), % (concentration not given with the values);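 active = significant combined selectivity score with lowered wild-type GFP, culture density cut under 30%, mutant RFP and density less affected; inactive = any of these conditions unmet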; also: one replicate is shown; some compounds called inactive have numbers as strong as hits
Ecoli rRNA inh OD600 = further read-out of Ecoli rRNA inh, marked with its call; OD600 change, %; measured here: OD600 growth;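 optical density of the mix in the first replicate; 0 = DMSO median and -100 = no signal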
Ecoli rRNA inh RFP = also measured in Ecoli rRNA inh; calls as there; RFP signal change, %; measured here: RFP humanized mutant strains;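 first replicate; 0 = DMSO median and -100 = no signal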
Numbers without * were called inactive; i = inactive; u = inconclusive; x = not tested or not shown; & = joins results of further samples. These rows are one share of the data; rates above refer to the full screens.

Results follow in this order: Beta cell apopt, ALR H2O2 inh, Ecoli rRNA inh, T cruzi repl, Calb FLC, Ecoli rRNA inh OD600, AF4-AF9 inh, RanGTP-Imp inh, Ecoli rRNA inh RFP, FGF22 binding
- CC1Cc2ccccc2N1C(=O)c1ccc2c(c1)OCO2 (stereo not drawn)
  -1, -6, 4, -21, -2, 4, -1.8, 12, -2.0, i
- CCNC(=O)c1ccc(NS(=O)(=O)c2ccc3[nH]c(=O)[nH]c3c2)cc1
  -15, 0, 6, -18, -10, 11, -0.3, 3.1, 3.0, i
- COc1ccc2c(c1)-c1nc(/N=C/c3cccc(OC)c3O)sc1CC2
  x, 73, x, -21, -2, x, x, 0.9, x, x
- Cc1cccc(N2CCN(C(=O)c3cc(COc4ccc(F)c(F)c4)on3)CC2)n1
  0, 0, 1, -2, -3, 5, -2.5, -0.1, -0.7, i
- CCN(CC(=O)NCc1cccs1)S(=O)(=O)c1cc(NC(C)=O)ccc1OC
  -3, -1, x, x, x, x, 0.5, x, x, i
- Cc1ccc(C)c(N2CCN(CC3CCCCC3)CC2)c1
  3, 3, -36, -4, -10, -30, 0.8, 0.9, -1.2, i
- NC(=O)c1nsc(C(=O)N(c2ccccc2F)C(C(=O)NCc2ccc(F)cc2)c2ccc(O)cc2)c1N (stereo not drawn)
  10, 3, -40*, -36, 1, -3.8*, -0.7, 0.8, 9.1*, i
- CCC(C)N1C(=O)CCC1C(=O)NCc1ccc2c(c1)OCO2 (stereo not drawn)
  -1, -3, 9, -4, -5, 15, 0.8, 4.4, -1.7, i
- COc1ccc(NC(=O)CN2CCC(C(=O)c3ccc(F)cc3)CC2)c(OC)c1
  -2, 2, -1, 11, 2, -13, -3.4, -1.2, 1.8, i
- Cc1cccc(-n2c(-c3ccco3)nc3nc4ccccc4nc32)c1
  -11, -3, x, 0, 10, x, x, 2.2, x, x
- COc1ccc(/C=C/C(=O)Nc2cccc(N3CCOCC3)c2)cc1OC
  0, 2, x, 3, 14, x, x, 0.5, x, x
- Cc1ccc(S(=O)(=O)NC(c2ccccc2)C(C)C(=O)n2nc(C)cc2C)cc1 (stereo not drawn)
  2, 1, x, -1, 0, x, x, 2.5, x, x
- Cn1c(=O)c([N+](=O)[O-])c(NCCCn2ccnc2)c2ccccc21
  -10, -18, 8, -6, 44, 8, 1.4, 5.1, -0.7, i
- CCn1c(=O)c2ccccc2n(CC(=O)NCCC2=CCCCC2)c1=O
  x, 0, 7, 6, 3, 5, -1.3, u, -1.9, i
- Nc1c(Br)cc(Br)cc1CNC1CCC(O)CC1 (stereo not drawn)
  -2&5, 26, x, -7&8, x, x, -3.7&-5.4, 1.4&1.4, x, i
- CCOc1ccc(N2C(=O)C3C(C2=O)C3(c2ccccc2)c2ccccc2)cc1 (stereo not drawn)
  -1, -6, -14, 4, -25, -31, 11, -0.3, -12, i
- CC(C)CNC(=O)C1CCCN(S(=O)(=O)c2ccc(-n3cnnn3)cc2)C1 (stereo not drawn)
  -5, -1, x, -14, -1, x, x, 4.1, x, x
- O=C(NCc1ccco1)C(c1ccco1)N(Cc1cccs1)C(=O)Cn1nnc2ccccc21 (stereo not drawn)
  4, -25, x, -5, 6, x, x, -0.9, x, x
- CC1CCc2sc(C(=O)N/N=C/c3ccc(O)cc3)cc2C1 (stereo not drawn)
  -7, -5, -6, 8, u, -6, 4.8, 3.0, -1.1, i
- CC1(C)CC(CCN)(Cc2ccccc2Cl)CCO1 (stereo not drawn)
  -2, x, -1, 30, 1, -4, x, 5.4, 4.2, i

(list continues)
Results follow in this order: Beta cell apopt, ALR H2O2 inh, Ecoli rRNA inh, T cruzi repl, Calb FLC, Ecoli rRNA inh OD600, AF4-AF9 inh, RanGTP-Imp inh, Ecoli rRNA inh RFP, FGF22 binding
- Cn1c(N)c(C(=O)COC(=O)c2cc(C3CC3)nc3ccccc23)c(=O)n(Cc2ccccc2)c1=O
  -4, 5, 6, 8, 17, -3, -3.2, -2.1, -4.0, i
- CCOc1nc(-c2ccccc2Cl)nc2ccccc12
  -3, -5, 5, 1, -27, 4, -1.5, -0.2, -0.1, i
- CC1CC(C)CN(S(=O)(=O)c2ccc(NC(=O)C3CC(=O)N(Cc4ccccc4)C3)cc2)C1 (stereo not drawn)
  4, 19, 10, -16, -12, 9, -1.1, 1.7, 6.7, i
- CC(OC(=O)C1CC1)C(=O)Nc1ccc([N+](=O)[O-])cc1Cl (stereo not drawn)
  -13, x, 5, 1, -4, 9, 0.7, 0.7, -3.2, i
- O=C(CSc1nnnn1-c1ccccc1)Nc1ccccc1
  -2, x, -2, -16, 0, 5, -5.4, -4.5, -1.9, x
- Cc1cc(C)c(NC(=O)COC(=O)C2CCCO2)c(C)c1 (stereo not drawn)
  0, -7, 6, x, x, 10, 2.4, x, 1.6, i
- Cc1ccc(S(=O)(=O)N2[C@@H](c3ccc(Cl)cc3)C(C(=O)O)=C[C@H]2C(C)(C)C)cc1
  4, 6, x, x, x, x, 1.9, x, x, i
- COc1ccc(S(=O)(=O)N2CCOCC2)cc1NC(=O)c1cccc(Cl)c1
  2, -4, 14, -14, 7, 17, -1.6, 2.3, 1.7, i
- O=C1Cc2ccccc2C(c2ccccc2)N1 (stereo not drawn)
  x, 24, x, -9, 31, x, -3.9, 7.5, x, x
- CCOC(=O)N1CCN(CC(O)COc2c(C)cc(C)cc2C)CC1 (stereo not drawn)
  -6, 2, 1, 0, -3, -4, 0.7, u, -4.7, i
- COc1cc(/C=N/NC(=O)c2ccncc2)cc2c1OCO2
  0, x, 14, 3, -10, 8, -1.9, 2.7, 2.2, i
- Nc1cc(=O)[nH]c(SCc2nnnn2-c2ccc(Cl)cc2)n1
  -8, 0, 8, -2, -13, 5, -28, 1.8, -0.1, i
- CCOc1ccc(C(=O)Nc2ccc3c(c2)OCO3)cc1OCC
  9, -9, x, 2, 1, x, x, -0.1, x, x
- CCn1c(NCc2ccccc2NS(=O)(=O)c2ccc(C)cc2)nc2ccccc21
  0, x, x, 17, -2, x, x, -2.9, x, x
- Cn1c(O)c(N=NC(=O)CNC(=O)c2cccnc2)c2ccccc21
  -4, -1, -16, -1, -4, -12, -0.4, 0.9, -2.5, i
- Cc1sc2nc(SCC(=O)Nc3cccc(S(N)(=O)=O)c3)[nH]c(=O)c2c1C
  -2, u, -10, x, x, -13, -0.1, x, 1.9, i
- COc1cccc(-c2cc(C(=O)N3CC4(C)CC3CC(C)(C)C4)no2)c1 (stereo not drawn)
  -5, -5, x, -2, -9, x, x, x, x, x
- C=CCNc1nc(-c2cc3ccccc3o2)cs1
  3, 28, x, -22, -7, x, x, 0.9, x, x
- COc1ccc(N/C=C/C(=O)c2sc(-c3ccccc3)nc2C)cc1
  6, x, x, 11, 16, x, x, -5.9, x, x
- Cc1cc(=O)[nH]c(SC(C(=O)O)c2ccccc2)n1 (stereo not drawn)
  -3, -1, x, -15, 5, x, x, -0.6, x, x

Carrying on.
Results follow in this order: Beta cell apopt, ALR H2O2 inh, Ecoli rRNA inh, T cruzi repl, Calb FLC, Ecoli rRNA inh OD600, AF4-AF9 inh, RanGTP-Imp inh, Ecoli rRNA inh RFP, FGF22 binding
- COc1ccc2cc3cc(C(=O)Nc4ccc5c(c4)OCO5)oc3nc2c1
  4, -8, x, 3, -1, x, x, -1.8, x, x
- CCCn1nnnc1NCc1ccc(N(CC)CC)cc1
  -4, 98*, 13, -10, 4, 12, -1.5, 2.7, 2.7, i
- CC(C)(C)c1cc(C(=O)N/N=C/c2ccc(O)cc2)n(-c2ccccc2)n1
  -6, 94*, x, 9, 3, x, x, -3.1, x, x
- COc1ccc(NC(=O)c2ccccc2-c2ccc(C(F)(F)F)cc2)cc1S(=O)(=O)N1CCOCC1
  7, -1, -2, 1, 0, -23, -40, 2.1, -5.8, i
- O=C(CSc1nnnn1-c1ccccc1)Nc1ccc(Cl)cn1
  19, -26, x, -4, -7, x, x, 6.5, x, x
- O=C1c2ccccc2C(=O)N1OS(=O)(=O)c1ccccc1
  -1, -1, x, 9, 3, x, x, -5.4, x, x
- Cc1ccc(C(C(=O)NC2CCCCC2)N(Cc2cccnc2)C(=O)c2csnn2)cc1 (stereo not drawn)
  4, 2, 3, -6, 0, -5, -4.5, -3.5, 2.3, i
- COc1ccc(C(=O)Oc2cc(N)n(S(=O)(=O)c3ccccc3)n2)cc1
  3, -2, 14, -14, 24, 18, -1.1, -7.5, 1.8, x
- O=C(Cn1cnc2c(oc3ccccc32)c1=O)N1CCCc2ccccc21
  6, x, x, 6, 16, x, x, -4.3, x, x
- CCOC(=O)c1sc(SCC(=O)Nc2ccc(N(C)C)cc2)nc1N
  1, 40, x, -1, -1, x, x, -3.6, x, x
- COc1ccc(C2=NN(C(=O)CSc3ncccn3)C(c3cccc(OC)c3OC)C2)cc1 (stereo not drawn)
  -2, -4, 10, 16, 13, 16, 0.0, 2.9, -2.6, i
- O=C(CCCCCn1c(=S)[nH]c2ccc(N3CCOCC3)cc2c1=O)NC1CCN(Cc2ccccc2)CC1
  -3, x, -3, 65*, 2, -4, 1.7, 0.4, 1.8, x
- COc1ccc(SC[C@H](CC(C)C)N2CCN(C)CCC2=O)cc1
  -2, -5, 10, -15, -15, 18, 2.9, 4.7, 0.3, i
- CCS(=O)(=O)Nc1cccc(C2=NN(S(=O)(=O)c3ccc(C)cc3)C(c3ccco3)C2)c1 (stereo not drawn)
  4, -6, -4, -2, 1, -17, 0.5, -1.9, 15, i
- CCOC(=O)C1(C)/C(=N/Nc2ccccc2Cl)C(=O)C(=O)N1c1ccccc1 (stereo not drawn)
  -1, 72, x, 8, 20, x, x, -3.5, x, x

Some values from the entries so far:
Nc1cc(=O)[nH]c(SCc2nnnn2-c2ccc(Cl)cc2)n1 in Calb FLC reads -13
CC(C)CNC(=O)C1CCCN(S(=O)(=O)c2ccc(-n3cnnn3)cc2)C1 (stereo not drawn) in T cruzi repl reads -14

Screening data (PubChem)
